Source: PubChem
HPGD inh – inhibitors of human 15-hydroxyprostaglandin dehydrogenase (HPGD); Potency, µM, without a hit: top-dose activity change, negative = inhibition, most hits filed as inhibitors; AID 894; 150,000 tested, 4.3% active; purified HPGD, NADH fluorescence kinetic, PGE2 substrate; P15428; active = well fitted inhibition curve with a large enough effect (not every such curve was filed as active); inconclusive = small, poorly fitted or top-dose-only effect, or another doubt; inactive = no such curve, though single readings can be large or run the other way;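 also: top concentration of the series not given in the record; plate controls included wells without enzyme; inactives centre near -10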
Target sequence (P15428 whole entry, looked up): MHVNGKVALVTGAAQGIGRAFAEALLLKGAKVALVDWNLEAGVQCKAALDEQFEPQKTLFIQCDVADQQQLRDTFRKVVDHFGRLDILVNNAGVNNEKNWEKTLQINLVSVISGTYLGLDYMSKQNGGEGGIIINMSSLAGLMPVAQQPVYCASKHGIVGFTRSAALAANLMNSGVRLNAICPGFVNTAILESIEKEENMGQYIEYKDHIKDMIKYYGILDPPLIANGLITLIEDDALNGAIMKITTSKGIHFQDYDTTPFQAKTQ
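NADH formation kinetics: reaction with 30 uM PGE2 and 1 mM NAD+ (final), 20 nM enzyme, Tris-HCl pH 8 with Tween 20, after 15 min compound preincubation at room temperature. Fluorescence change, last versus first of five reads.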
Active calls of the source: *; ? = inconclusive; & = joins results of further samples. % is scaled to controls: 0 for no effect and ±100 for the full control effect; potency is read from the fitted curve at half-maximal effect.

A first look (two entries):
Structure	HPGD inh
CCOC(=O)c1cnc(SCC(=O)N2CCN(C(=O)c3ccco3)CC2)nc1N	-13%
O=C(Nc1ccc2oc(-c3ccccc3F)nc2c1)c1ccc2c(c1)OCCO2	?

The whole of this part, previewed entries included:
Structure	HPGD inh
CCOC(=O)c1cnc(SCC(=O)N2CCN(C(=O)c3ccco3)CC2)nc1N	-13%
O=C(Nc1ccc2oc(-c3ccccc3F)nc2c1)c1ccc2c(c1)OCCO2	?
CC(C)CCn1c(=O)c2ccccc2c2ccccc2c1=O	-9%
O=C(Cn1c(C2CC2)nc2ccccc2c1=O)Nc1ccc(Br)cc1	-1%
CC1CC1C(=O)OCc1cc(=O)n2cc(Br)ccc2n1 (configuration not stated)	-7%
CCOc1ccc(NC(=O)N(CCC(C)C)C2CCN(C(C)=O)CC2)cc1	3%
C(=C\c1ccco1)/C=N/n1cnnc1	32µM*
Cc1ccc(-c2nn(-c3ccccc3)cc2NC(=O)c2ccccc2)cc1	-21%
COc1ccc(OC(=O)c2cccc(S(=O)(=O)N3CCCC3)c2)cc1	-14%
COc1ccc(C(=O)CSc2nc(SC)ns2)cc1OC	-13%
O=C(O)c1cc2c(cc1S(=O)(=O)O)[C@H]1[C@@H](C3[C@H]2[C@@]2(Cl)C(Cl)=C(Cl)C3(Cl)C2(Cl)Cl)[C@]2(Cl)C(Cl)=C(Cl)C1(Cl)C2(Cl)Cl (some centres not stated)	?
CCOc1cc2c3c(c1)C1(Nc4ccccc4S1)C(=O)N3C(C)(C)CC2C (configuration not stated)	-10%
COC(=O)c1ccc(C(=O)OC)c(NC(=O)CCC(=O)O)c1	?
O=C(CSc1nnc(-c2ccc(Br)cc2)n1C1CCCCC1)N1CCCC1	-16%
CC(C)(C)c1ccc(/C=C2\Oc3cc(OC(=O)N4CCOCC4)ccc3C2=O)cc1	-7%
Cc1ccc(N2C(=O)C3Sc4[nH]c(=O)sc4C(c4ccccc4)C3C2=O)cc1 (configuration not stated)	-8%
c1ccc2c(c1)ncn2Cc1nnc2sc(-c3ccc4c(c3)OCO4)nn12	?
CCOc1ccc(NC(=O)C2=C(C)C(=O)OC23CCC(C)CC3)cc1 (configuration not stated)	-8%
CCc1nnc(NC(=O)C(C)N2C(=O)C3C4C=CC(C4)C3C2=O)s1 (configuration not stated)	-2%
O=C(CSc1nc2ccccc2c(=O)n1Cc1ccc(C(=O)NC2CC2)cc1)NCc1ccco1	2.8µM*
O=C(NCCCO)/C(=C\C=C\c1ccccc1)NC(=O)c1ccccc1Cl	-15%
Cc1onc(-c2ccccc2)c1C(=O)Nc1sc2c(c1C(N)=O)CCC2	-19%
CCCCCn1c(CN2CCN(CCO)CC2)nc2c1c(=O)n(C)c(=O)n2C	0%
CC(=O)NCC(=O)N(C)C(C(=O)Nc1ccc(C(C)C)cc1)c1ccccc1 (configuration not stated)	-3%
C=CCNC(=O)C(C)N1C(=O)c2ccccc2C1=O (configuration not stated)	-8%
N#C/C(=C\c1ccc[nH]1)C(=O)NC1CC1	-10%
CNc1ncnc(Sc2nc(N)nc3nc[nH]c23)c1[N+](=O)[O-]	-4%
CCOc1cc(S(=O)(=O)NCCN2CCOCC2)c(C)cc1C	-7%
COC(=O)c1c(C)n(-c2ccccc2)c2ccc(O)cc12	?
CCOC(=O)c1cc(C(=O)OCC)c(=O)[nH]c1C	-28%
COc1ccc(NC(=O)c2ccc3ccccc3c2)cc1NS(=O)(=O)c1ccc(F)cc1	-2%
S=C(NC12CC3CC(CC(C3)C1)C2)N1CCCC1	-2%
Cc1ccc(NC(=O)CN(C)C(=O)/C=C/c2cccs2)cc1	-5%
COC1(C)CCC2OC2(C)CCC2C1CC2(C)C (configuration not stated)	-13%
O=C1CCC[C@H]1C(=O)Nc1ccc2ccccc2c1	-7%
O=C(/C=C/c1ccccc1)N/C(=C/c1ccccc1)C(=O)Nc1ccccc1O	-10%
Cc1csc(Sc2nc3c(c(=O)[nH]c(=O)n3C)n2CCCc2ccccc2)n1	-2%
NNC(=O)Cc1cccnc1	-10%
O=C1C=CC2=C3c4cc(O)c(O)cc4C[C@]3(O)COC2=C1	16µM*
COCCCNc1ncnc2c1cnn2-c1ccc(C)cc1C	7.9µM*
Cc1noc(C)c1CSc1nc2sc3c(c2c(=O)n1C)CCCC3	-12%
COc1cc(C)c(Br)cc1S(=O)(=O)N1CCOCC1	-12%
O=C(CCCc1nc2ccccc2s1)NCc1ccccc1F	32µM*
CCOCC(=O)Nc1ccc(S(=O)(=O)NCCc2ccccc2)cc1	-5%
COc1cc(OC)c2c(-c3cccc(-c4sccc4C(C)=O)c3)cc(=O)oc2c1	?
O=C(Nc1cc(=O)[nH]c2ncnn12)c1ccccc1	-17%
COc1ccccc1N1CCN(Cc2ccc(O)c3ncccc23)CC1	-13%
COc1ccc(CCN(C(=O)c2cccc(F)c2)C2CC(=O)N(c3ccccc3)C2=O)cc1 (configuration not stated)	3%
COc1cc(C)ccc1OCCOc1ccccc1Cl	?
CC(=O)N[C@H](CC(C)C)C(=O)O	-6%

Next records
Structure	HPGD inh
Cc1ccc(/C=N/NS(=O)(=O)c2ccccc2)o1	-17%
Nc1c(S(=O)(=O)c2cccs2)c2nc3ccccc3nc2n1Cc1cccs1	?
FC(F)(F)c1cccc(NC(=S)NCCc2ccccn2)c1	-13%
O=C(NCc1ccc(F)cc1)c1cnc2n(c1=O)CCS2	-10%
COc1cc2[nH]c(=S)n(CCN3CCCCC3C)c(=O)c2cc1OC (configuration not stated)	-18%
Cc1ccc(OCC(=O)NNC(=O)CCC(=O)Nc2ccc(C)cc2C)cc1	-13%
O=C(COC(=O)CCSc1ccc(Cl)cc1)Nc1ccc(F)cc1	-26%
N#Cc1c2c(c(=S)n(-c3ccccc3)c1N)CCCC2	-28%
O=C(COC(=O)C1CC(=O)N(C2CCCCC2)C1)c1ccc(F)cc1 (configuration not stated)	-7%
CCSc1nnc(NC(=O)c2cccs2)s1	-27%
O=C(c1coc2ccc(O)c(CN3CCOCC3)c12)C1CC1	-13%
CCNc1nc(NC(C)C)nc(NS(=O)(=O)c2ccc(N)cc2)n1	-7%
C[C@@H](C(=O)NCc1ccc(S(C)(=O)=O)cc1)[C@H]1C[C@]1(C)[C@H](NC(=O)OCc1ccccc1)c1ccccc1	-19%&-15%
Cc1ccc(S(=O)(=O)N(CC(=O)NCCC2=CCCCC2)Cc2ccccc2F)cc1	-13%
O=c1c(/C=N/O)c(Nc2ccccc2)nc2ccccn12	0.56µM*
CCOC(=O)Cc1csc(NC(=O)c2ccc(OC)c(OC)c2)n1	-6%
Cc1sc2ncnc(NCC3COc4ccccc4O3)c2c1C (configuration not stated)	-23%
Cc1c(S(=O)(=O)N2CCN(C(=O)c3ccco3)CC2)c(=O)n(C)c(=O)n1C	1%
CCNC(=O)[C@H](C)/C=C/C(NC(=O)OCc1ccccc1)c1ccc(C(=O)OC)cc1 (some centres not stated)	-8%
CCC(CC)C(=O)Oc1c(Sc2ccccc2[N+](=O)[O-])c(C)nn1C(C)(C)C	-25%
O=C(O)c1ccc(NS(=O)(=O)c2cccc3cccnc23)cc1	-5%
CC(C)[C@@H](C(=O)O)N1C(=O)c2ccccc2C1=O	0%
O=c1c2ccccc2nc(N2CCN(c3ccccc3)CC2)n1Cc1ccccc1	-29%
Brc1ccc(-c2ncc(-c3ccccc3)cn2)cc1	-17%
CC(C)CCn1cnc2c(c1=O)c1nc3ccccc3nc1n2Cc1ccc2c(c1)OCO2	?
O=C(Oc1cccc2c(OC(=O)N3CCOCC3)cccc12)N1CCOCC1	-4%
COc1ccc(NC(=O)c2ccc(-c3ccccc3)cc2)cc1NS(=O)(=O)c1ccc(F)cc1	?
Cn1cc(-c2nc3cnc(Oc4cccc(Cl)c4)nc3n(CCC#N)c2=O)c2ccccc21	-3%
CO[C@]12CC(COC(=O)c3cncc(Br)c3)CN(C)[C@@H]1Cc1cn(C)c3cccc2c13 (some centres not stated)	-2%
CC(C)(C)c1ccc(OCCON2C(=O)CCC2=O)c(Cl)c1	-16%
N#CC(c1ccccc1F)(c1ncc(C(F)(F)F)cc1Cl)N1CCOCC1 (configuration not stated)	-8%
CCCn1c(=N)c(C#N)cc2c(=O)n3ccccc3nc21	?
CCOC(=O)NC1(Nc2ccc(Cl)cn2)Oc2ccccc2O1	-9%
Cc1cccc(NC(=O)c2cc(NC(=O)CCCC(=O)O)ccc2Cl)n1	-14%
c1ccc2c(NC3=NCCCCS3)cccc2c1	-16%
Cc1[nH]c2ccccc2c1C(=O)CN1C(=O)NC(C)(c2ccc(Cl)cc2Cl)C1=O (configuration not stated)	-26%
Cc1[nH]n(C(C)(C)C)c(=O)c1Sc1ccc(Cl)cc1	-19%
Cc1cc2cc3c(cc2nc1SCC(=O)O)OCCO3	-20%
CCc1c(C)c2c(C)nn(-c3ccccc3)c2[nH]c1=O	-17%
COc1ccc(C)cc1NS(=O)(=O)c1ccc(NC(=O)CN(c2cc([N+](=O)[O-])ccc2C)S(C)(=O)=O)cc1	-15%
CC(=O)Nc1c(C)ccc(CNC(=O)COc2cc(C)ccc2C)c1C	-9%
CCOc1ccc(OCC)c(NC(=O)C2CCN(S(=O)(=O)c3c(C)noc3C)CC2)c1	-9%
CCOC(=O)CN1C(=O)N[C@@H](c2ccccc2)C(C(=O)OC)=C1C	-3%&-9%
Clc1ccc(C2Nc3ccccc3-n3cccc32)cc1 (configuration not stated)	?
CCN(CC)Cc1cc(C(C)=O)ccc1OCC(C)C	-3%
CC(C)c1ccc(-c2noc(C3CCCN(S(C)(=O)=O)C3)n2)cc1 (configuration not stated)	-7%
Cc1c(NC(=O)c2ccc3c(c2)OCO3)c(=O)n(-c2ccccc2)n1C	-13%
CCC1=C2CC[C@H]3C(=O)NC(=O)[C@H]3[C@H]2[C@@]2(C)C(=NCCOC)OC(=O)N2C1=O	-1%
CC(OC(=O)CNC(=O)c1ccccc1F)C(=O)Nc1nc(-c2ccccc2)cs1 (configuration not stated)	-24%
Cc1ccc(/C=C/C(=O)N2CCN(c3ccc(F)cc3)CC2)o1	-18%

Following part:
Structure	HPGD inh
COc1ccc(N2CCN(S(=O)(=O)c3ccc(Cl)c(C(F)(F)F)c3)CC2)cc1	-10%
Cc1cccc(Nc2nc(N)nc(CC(=O)CSc3ccc(Cl)cc3)n2)c1	-6%
CCn1nnc(NC(=O)C(C)Oc2ccc(Cl)cc2Cl)n1 (configuration not stated)	0%
Cc1cnc(NC(=O)CSc2ncc(-c3ccccc3)n2Cc2ccco2)s1	-1%
COc1ccc(NS(=O)(=O)c2ccc(NC(=S)NC(=O)c3ccc(Br)cc3)cc2)nn1	-12%
COc1ccc(/C=C(/NC(=O)c2ccccc2)C(=O)N/N=C/c2ccc3c(c2)OCO3)cc1OC	32µM*
CC1CCC(NC(=O)c2cnccn2)CC1 (configuration not stated)	-6%
COc1cccc(/C=N/NC(=O)CCCc2ccc(OC)c(C)c2)c1	-19%
O=C(c1cccc(C(=O)N2CCN(c3ccc(F)cc3)CC2)c1)N1CCN(c2ccc(F)cc2)CC1	-10%
COc1cc2nc3c(c([Si](C)(C)C(C)(C)C)c2cc1OC)Cn1c-3cccc1=O	?
CCCCN(C)CCNC(=O)Cn1c(=O)sc2ccccc21	2%
O=C(NC1CCCCC1)N(Cc1ccc(F)cc1)Cc1nc2ccccc2c(=O)[nH]1	-13%
COc1ccc2cc(S(=O)(=O)N3CCN(C)CC3)ccc2c1	-3%
CCOC(=O)c1c(C)n(C)c2ccc(OC)c(NC(=O)CN3CCC4(CC3)OCCO4)c12	-12%
CCOC(=O)N/N=C/c1cn(CCCOc2ccc(C)cc2)c2ccccc12	-8%
O=C(NCC1CCCO1)C1CCN(S(=O)(=O)Cc2ccccc2)CC1 (configuration not stated)	2%
COc1cccc(-c2nc(-c3ccccc3)no2)c1	1%
Cc1c(C(=O)O)sc2ncnc(N3CCCCC3C)c12 (configuration not stated)	18µM*
Cc1cc(NC(=O)CSc2ccc3nnc(-c4ccc(F)cc4)n3n2)no1	-27%
CCOC(=O)Cn1c2c(c(=N)c3c1CCC3)CCC2	-13%

Overlap with the part before: four entries; new compounds follow.
Structure	HPGD inh
COc1cccc(-c2nc(-c3ccccc3)no2)c1	1%
Cc1c(C(=O)O)sc2ncnc(N3CCCCC3C)c12 (configuration not stated)	18µM*
Cc1cc(NC(=O)CSc2ccc3nnc(-c4ccc(F)cc4)n3n2)no1	-27%
CCOC(=O)Cn1c2c(c(=N)c3c1CCC3)CCC2	-13%
COc1ccccc1Nc1nc(N)nc(CSCCO)n1	-7%
N=C1S/C(=C\c2ccccc2)C(=O)N1c1ccc(F)cc1	-13%
O=C(CSc1nnc(CN2CCOCC2)n1-c1ccc(Cl)cc1)Nc1ccc2c(c1)OCO2	0%
O=C(NCCCN1CCCCCC1)[C@@H](c1ccccc1)C1CCCCC1	3%
O=C(CSCc1ccc(F)cc1)NC1CCCC1	-19%
COc1cccc(C2=NOC(C(=O)Nc3cccc(C(C)=O)c3)C2)c1 (configuration not stated)	-22%
CCS(=O)(=O)c1nc2ccccc2n1Cc1ccccc1Cl	-9%
O=[N+]([O-])c1ccc(CCO)cc1	-5%
Cc1ccc(C(CC(=O)N2CCCC2)c2ccccc2)c(O)c1C (configuration not stated)	7.9µM*

Some of the compounds tested, so the mix of outcomes need not match the whole.
